ClpP mod: qHTS Assay for Activators of ClpP; ATP-dependent Clp protease proteolytic subunit (Bacillus subtilis (strain 168)), P80244; purified B. subtilis ClpP, FRET peptide cleavage, 20 min; Potency, µM (series often up to 57.5 µM), for the others: at the highest dose activity change, negative = active; 340,000 tested, 1.9% active; AID 651965, 2013; active = well fitted falling curve with a large enough effect; inconclusive = small, poorly fitted or top-dose-only effect; inactive = no such curve, though single readings can be large or run the other way; further: the source files actives as falling curves though it sought activators and does not explain the sign; nearly all actives have a fitted effect of over 65% in size; many hits overshoot -100%
Target sequence (P80244 whole entry, looked up): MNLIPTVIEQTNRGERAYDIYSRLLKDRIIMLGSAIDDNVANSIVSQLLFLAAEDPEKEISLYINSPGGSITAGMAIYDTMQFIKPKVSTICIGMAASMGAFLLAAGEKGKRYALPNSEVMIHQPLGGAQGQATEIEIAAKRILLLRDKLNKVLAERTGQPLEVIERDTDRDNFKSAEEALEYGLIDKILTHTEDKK
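Purified B. subtilis ClpP, 10 microg/mL final in Tris/HCl pH8 with KCl, BSA, glycerol and Tween-20, cleaved an Abz/nitrotyrosine-quenched decapeptide. Fluorescence (ex 320, em 430) was read at 0 and 20 min at room temperature. Delta was normalized to 5.8 microM ADEP and DMSO/no-enzyme controls.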
* = called active by the depositor; u = inconclusive; & = joins results of further samples. Potency means the concentration at half of the fitted maximal effect.

SMILES | ClpP mod
CC1CCC(NC(=O)C2(C)Cc3ccccc3C(=O)N2Cc2ccc(F)cc2)CC1 (stereo unspecified) | -13.2%
N#Cc1ccccc1NC(=O)c1cnc(N2CCOCC2)c2ccccc12 | -13.3%
COc1ccc(Cn2c(SCc3ccc(C(=O)NC(C)C)cc3)nc3cccnc32)cc1 | 4.2%
COc1ccc(-c2nnc(Nc3ccc(OC)c(C(N)=O)c3)c3ccccc23)cc1 | -3.0%
COc1ccc(O)c(C2Nc3ccccc3-n3c(-c4ccccc4)c4c(=O)n(C)c(=O)n(C)c4c32)c1 (stereo unspecified) | 4.0%
CCC(C(=O)N1CCN(c2ccccc2)CC1)n1nc(C)n2c(cc3sccc32)c1=O (stereo unspecified) | -6.1%
COCCNC(=O)c1ccc(CSc2nc3ccncc3n2Cc2ccccc2)cc1 | -4.2%
CC(C)(C)OC(=O)N1CCC(c2c(C(=O)Nc3ccc4c(c3)OCO4)cnn2-c2ccc(F)cc2F)CC1 | -0.6%
CC(=O)Nc1ccc(/C=C/c2ccnc3ccccc23)cc1[N+](=O)[O-] | -1.0%
Cc1cc(C)c(NC(=O)C2CCN(c3nnc(C)c4c(C)n(-c5ccccc5)nc34)CC2)c(C)c1 | -15.4%
CCOC(=O)c1ccc(NC(=O)CCc2nc3cccnc3n2Cc2cccs2)cc1 | -7.8%
Cc1ccc(S(=O)(=O)c2cnc(SCC(=O)Nc3ccccc3C(F)(F)F)[nH]c2=O)cc1C | -1.1%
CCOc1ccccc1CNC(=O)c1cc(-c2ccc(C)c(C)c2)nc2ccccc12 | 3.7%
Cc1cccc(NC(=O)CCn2cnc3ccccc3c2=O)c1 | -4.0%
O=C(Cn1ncn2nc(-c3cccs3)cc2c1=O)NCc1ccc(Cl)cc1 | -5.1%
Cc1c(C(=O)Nc2ccc(F)cc2F)oc2ccc3c(c12)C(=O)CC(C)(C)O3 | u
S=C(NCCCc1cnc[nH]1)NCCCN(Cc1ccc(Cl)cc1)c1cc(-c2ccccc2)ccn1 | u
CNCC(=O)c1c[nH]c2ccccc12 | 0.3%
Cc1ccc(C)c(-c2nc(Cn3c(=O)cc(-c4ccccc4)c4c(C)nn(C)c43)c(C)o2)c1 | -9.8%
O=C(Cn1cc(SCc2ccccc2F)c2ccccc21)N1CCCCC1 | 0.2%
O=[N+]([O-])c1ccc(/C=C/c2ccnc3ccccc23)cc1 | -7.9%
CCc1nn(CC(=O)N2CCN(c3cccc(C(F)(F)F)c3)CC2)c(=O)c2cccn12 | -2.1%
Cc1cccc(N2CCN(CCNC(=O)C3COc4ccccc4C3)CC2)c1C (stereo unspecified) | 0.7%
Cc1cccc(-c2noc(-c3ccccc3OCC(=O)Nc3ccc([N+](=O)[O-])cc3)n2)c1 | 0.8%
COc1ccc(-n2c(-c3ccc(C)cc3)cc3c2CC(C)(C)CC3=O)cc1Cl | -3.1%
CCOC(=O)c1c(-c2ccc(C)cc2)csc1NC(=O)c1nc(SCC)ncc1Cl | -1.8%
CCOc1c(Cl)cc(CNc2ccc3[nH]c(=O)[nH]c3c2)cc1OC | 18.4%
CCNC(=O)Cn1nc(C)n2c(cc3c(OC)cccc32)c1=O | u
CCc1ccccc1NC(=O)CSC1=Nc2ccccc2C2=NC(Cc3ccccc3)C(=O)N12 (stereo unspecified) | 4.4%
CCOCCCn1c(SCC(=O)NCCCOC)nc2c(sc3ccccc32)c1=O | -11.0%
CCc1ccc(NC(=O)Cn2c(=O)c(CNc3ccccc3)cc3cc(OC)c(OC)cc32)cc1 | -7.3%
O=C1c2ccccc2C(=O)C1c1cc2ccccc2cn1 | 1.3%
CCOC(=O)N1CCN(Cc2nc3cc(NC(=O)c4ccc([N+](=O)[O-])cc4)ccc3n2C(C)C)CC1 | -2.3%
O=C(Nc1cc(-c2nc3cc(Cl)ccc3o2)ccc1Cl)c1cccc2ccccc12 | -15.3%
O=C(CCn1cnc2onc(-c3ccc(F)cc3)c2c1=O)Nc1ccc(F)c(Cl)c1 | 1.1%
Cc1ccc2nc(/C(C#N)=C/c3cccc(Br)c3)[nH]c2c1 | -20.9%
CCOC(=O)c1ccc(NC2=CC(c3ccc(F)cc3)N(c3ccc(C(=O)OCC)cc3)C2=O)cc1 (stereo unspecified) | -3.3%
Cc1ccc(-c2nc(S(=O)(=O)c3ccccc3)c(SCC(=O)NC3CCCCC3)o2)cc1 | 0.5%
CCOc1ccc(CNC(=O)c2cnc3sc(N(CC)CC)nn3c2=O)cc1OC | 31.6µM*
CCc1ccc(-n2c(SC(CC)C(=O)N(CC)CC)nc3n[nH]c(C)c3c2=N)cc1 (stereo unspecified) | -3.6%
COc1ccc(S(=O)(=O)N2CCC(C(=O)Nc3cc(C(F)(F)F)ccc3Cl)CC2)cc1 | -3.3%
Nc1nc2ncn(COCCO)c2c(=O)[nH]1 | -11.0%
O=C(Nc1noc2ccccc12)c1cccc(F)c1 | 2.4%
O=C(Cn1c(=O)c2cccn2c2ccc(F)cc21)N1CCN(c2ccccc2)CC1 | -9.8%
COCCCn1c(=N)c(S(=O)(=O)c2ccccc2)cc2c(=O)n3cccc(C)c3nc21 | 0.2%

Ordered by length of the SMILES (highest first): part of the list above.
SMILES | ClpP mod
CCOC(=O)c1ccc(NC(=O)CCc2nc3cccnc3n2Cc2cccs2)cc1 | -7.8%
Cc1cccc(NC(=O)CCn2cnc3ccccc3c2=O)c1 | -4.0%
Nc1nc2ncn(COCCO)c2c(=O)[nH]1 | -11.0%

(more compounds)
SMILES | ClpP mod
Cc1nn(CC(=O)NCCc2ccccc2)c(=O)c2nn(-c3ccccc3)c(C)c12 | -5.3%
COc1cc(Cl)c(C)cc1NC(=O)CSc1cc(-c2ccccc2)nc(C)n1 | -0.3%
Cc1ccc2oc(=O)c(S(=O)(=O)c3ccc(C(C)(C)C)cc3)cc2c1 | -3.7%
Cc1ccc(CNC(=O)c2cc3c(=O)n(Cc4cccnc4)ccc3nc2C)cc1 | 28.2µM*
CCN(C(=O)c1cc2c(=O)oc3ccc(C)cc3c2s1)c1ccccc1F | -6.1%
Cc1ccc(CNC(=O)C2CCCN(c3nc4c(C)cc(C)cc4s3)C2)cc1 (stereo unspecified) | -0.4%
CN(Cc1ccccc1)c1ccc(C=O)cc1 | -2.2%
COc1ccc(CCNC(=O)C(=O)NCC(c2ccco2)S(=O)(=O)c2ccc(F)cc2)cc1 (stereo unspecified) | 1.3%
Cc1ccc(NC(=O)N2CCN(C(=O)c3nsc4ccccc34)CC2)cc1C | 0.4%
CCc1ccc2nc(N3CCC(C(=O)NCCC(C)C)CC3)sc2c1 | 0.2%
CCOc1ccc(NC(=O)Cn2nc(Cc3ccncc3)c3ccccc3c2=O)cc1 | -2.1%
CCc1ccc(C2CC(=O)N(c3cccc(C(F)(F)F)c3)C3=C2C(=O)OC3)cc1 (stereo unspecified) | -2.1%
Cc1c(S(=O)(=O)c2cccc(Cl)c2)nnn1-c1cccc(C(F)(F)F)c1 | -0.4%
CCC(=O)N1c2ccccc2CC1C(=O)NCCc1ccccc1C (stereo unspecified) | -2.7%
CCCN(C(=O)Cn1cc(S(=O)(=O)N2CCN(c3ccccc3F)CC2)c2ccccc2c1=O)c1cccc(C)c1 | -9.4%
COc1ccc(CNC(=O)CCCc2nnc3n(C(C)C)c(=O)c4sccc4n23)cc1 | -17.3%
COc1ccc(NC(=O)CCNS(=O)(=O)c2cccc3nsnc23)cc1Cl | -0.5%
O=C(NC1CC(=O)N(c2ccc(F)cc2)C1)c1cccs1 (stereo unspecified) | 1.7%
CC(C)C(=O)Nc1nnc(SCc2cc(=O)n3ccccc3n2)s1 | -14.7%
COc1cccc(-c2ccc3c(N)c(C(=O)Nc4ccccc4C)sc3n2)c1 | -10.6%
CCCCn1cc(S(=O)(=O)c2ccc(OC)cc2)c(=O)c2cc(F)c(F)cc21 | -1.6%
C=Cc1ccc(Cn2c(C(=O)OC)cc3sc(C)cc32)cc1 | -20.8%
Cc1scc(CN2CCN(c3ccc(F)cc3)CC2)c1C | -1.6%
CCOc1ccc(C(=O)Nc2ccc3nc4c(c(Nc5ccccc5OC)c3c2)CCCC4)cc1 | -14.6%
COc1ccc(S(=O)(=O)c2c(C(=O)c3ccc(C)c(C)c3)cnc3ccc(F)cc23)cc1 | -1.8%
CCOCCCn1c(SCC(=O)NCc2ccccc2)nc2c(sc3ccccc32)c1=O | -1.6%
O=C(CN1CCN(Cc2ccc(F)cc2Cl)S1(=O)=O)Nc1ccc(F)cc1 | 0.5%
CN(C1CCCCC1)S(=O)(=O)c1ccc(F)c(C(=O)Nc2ccc(C(F)(F)F)cc2)c1 | -4.2%
Fc1ccc(CNc2ncnc3nc[nH]c23)cc1 | 1.0%&1.0%
COc1ccc(-c2onc(C)c2C)cc1S(=O)(=O)NC1CCC(C)CC1 (stereo unspecified) | -2.3%
CCc1ccc(S(=O)(=O)N(C(=O)c2ccncc2)c2ccc3oc(C)c(C(=O)OC)c3c2)cc1 | -0.8%
COc1cccc(NS(=O)(=O)c2ccc3[nH]cc(C(=O)N4CCCCCC4)c(=O)c3c2)c1 | -17.2%
COc1ccc(NC(=O)Cn2c(=O)n(Cc3ccc4c(c3)OCO4)c(=O)c3ccc(C(=O)NC4CCCCC4)cc32)cc1 | -1.9%
COc1ccc(CCNC(=O)c2cc3c(=O)n(C)c4ccccc4c3s2)cc1OC | -29.2%
COc1ccccc1CNC(=O)Cn1nc(C)c2nn(-c3ccc(Cl)cc3)c(C)c2c1=O | -13.1%
COc1cccc(C2CC(=O)Nc3c2c(=O)[nH]c2nc4ccccc4n32)c1 (stereo unspecified) | -20.0%
CCn1ccc2cc(S(=O)(=O)N3CCC(C(=O)NCc4ccc(OC(C)C)cc4)CC3)ccc21 | -12.6%
CC(C)(C)OC(=O)N1CCC(c2c(C(=O)N3CCN(c4ncccn4)CC3)cnn2-c2ccc(F)cc2F)CC1 | -10.2%
CC(C)Oc1ccc(C(=O)N(Cc2ccc(N(C)C)cc2)C2CCS(=O)(=O)C2)cc1 (stereo unspecified) | -0.9%
Cc1ccccc1C(=O)Nc1ccc2oc(-c3ccc(Cl)c(Cl)c3)nc2c1 | u
O=C(Cn1c(=O)c2ccccc2n(CC(=O)Nc2ccc(F)cc2)c1=O)NCCc1ccccc1 | -13.5%
CSc1ccc(CCNC(=O)c2ccc(-n3c(C)cc4c3CCCC4)cc2)cc1 | -7.5%
COc1ccc(-n2c(C)c(C(C)=O)c3cc(OC(=O)COc4ccccc4)ccc32)cc1 | -1.6%
CN1CCN(C(=O)Cn2ncc3c4ccccc4n(Cc4ccc(F)cc4)c3c2=O)CC1 | 4.4%
Cc1ccc(-c2nc3ccc(Br)cn3c2Nc2ccc3c(c2)OCO3)o1 | -1.6%

A section of the results above, as a working copy:
SMILES | ClpP mod
CCc1ccc(S(=O)(=O)N(C(=O)c2ccncc2)c2ccc3oc(C)c(C(=O)OC)c3c2)cc1 | -0.8%
COc1cccc(NS(=O)(=O)c2ccc3[nH]cc(C(=O)N4CCCCCC4)c(=O)c3c2)c1 | -17.2%
COc1ccc(NC(=O)Cn2c(=O)n(Cc3ccc4c(c3)OCO4)c(=O)c3ccc(C(=O)NC4CCCCC4)cc32)cc1 | -1.9%
COc1ccc(CCNC(=O)c2cc3c(=O)n(C)c4ccccc4c3s2)cc1OC | -29.2%
COc1ccccc1CNC(=O)Cn1nc(C)c2nn(-c3ccc(Cl)cc3)c(C)c2c1=O | -13.1%

Continuation.
SMILES | ClpP mod
CCn1cc(C(=O)N2CCN(c3ccccc3)CC2)c(=O)c2cc(S(=O)(=O)N3CCC(C)CC3)ccc21 | -0.9%
Cc1ccc(-n2ncc(C(=O)N3CCN(C4CCCCC4)CC3)c2C2CCN(C(=O)OC(C)(C)C)CC2)cc1C | 2.2%
Cc1ccc(Cn2c(CNC(=O)c3cccc(C)c3)nc3ccccc32)cc1 | 0.8%
Cc1ccc(S(=O)(=O)c2[nH]c(-c3ccccc3)nc2SC(C)C(=O)O)cc1 (stereo unspecified) | -3.4%
Cc1ccc(NCc2ccccc2-c2nnc(-c3ccccc3Cl)o2)cc1Cl | -1.5%
COc1cc(C(=O)Nc2ccc(OCc3cc(=O)n4cc(C)sc4n3)cc2)cc(OC)c1OC | -6.3%
O=C(C[N+]1(CC(O)c2ccccc2)CCCCC1)c1ccccc1 (stereo unspecified) | -2.4%
Cc1ccc(C)c(CN2C(=O)c3ccccc3S(=O)(=O)c3ccc(C(=O)N4CCCCCC4)cc32)c1 | -2.6%
COc1ccc(C2c3c(n(C)c4ccccc34)C(=O)N2CC(=O)Nc2ccc(Cl)cc2)cc1 (stereo unspecified) | 17.8µM*
COc1cccc(CNC(=O)C2=C(C)C(=O)OC23CCCCCC3)c1 | 1.5%
CC1=C(C(=O)Nc2cccnc2)C(c2ccc(Cl)cc2)n2nc(SCc3ccccc3)nc2N1 (stereo unspecified) | -0.1%
Cc1ccc(S(=O)(=O)NCc2nc3cccnc3n2Cc2ccccc2Cl)c(C)c1 | -4.1%
CC(=O)Nc1ccccc1-c1nc2ccccc2n(C(C)C(=O)Nc2ccccc2C(F)(F)F)c1=O (stereo unspecified) | -3.8%
CCN(CC)CCNC(=O)C1CCCN(c2ncnc3onc(C)c23)C1 (stereo unspecified) | -2.4%

Another view of some results above.
molecule: CCn1cc(C(=O)N2CCN(c3ccccc3)CC2)c(=O)c2cc(S(=O)(=O)N3CCC(C)CC3)ccc21
  ClpP mod: -0.9%

molecule: Cc1ccc(-n2ncc(C(=O)N3CCN(C4CCCCC4)CC3)c2C2CCN(C(=O)OC(C)(C)C)CC2)cc1C
  ClpP mod: 2.2%

Assay outcomes (PubChem BioAssay)

These rows are one share of the data; count on the stated rates, not on these rows.
